# Compound activity deposited in PubChem BioAssay by National Center for Advancing Translational Sciences (NCATS).
# PINK1 modulator = modulators of PINK1 expression | hit rate 0.2% among 410,000 | PINK1 immunofluorescence, high-content cytometry, 24 h | AID 624263 | Potency, µM (doses to about 76.6 µM), inactives show at the top dose activation (PINK1 increase), most hits filed as activators; active = well fitted activation curve with a large enough effect; inconclusive = small, poorly fitted or top-dose-only effect; inactive = flat fitted curve, though single readings scatter; cell line not stated here;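 further: potency means the concentration at half of the fitted maximal effect; % of control where 0% means no effect; nearly all actives have a fitted effect of over 65% in size; a mitochondrial uncoupler was the plate control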
#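 Fluorescence from anti-PINK1 antibody, together with nuclear and cell stains, was scanned on a laser-scanning cytometer. Before staining, stable-line cells were incubated 24 hours with compounds at 5 concentrations; primary antibody 12 h at 10 degrees C.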
# Menin MLL FP FL = inhibitors of human menin-MLL interaction, wild-type MLL peptide; 290,000 tested, under 10 active; AID 1766; FP activity change, % at 61.4 µM; Fluorescence polarization, fluorescein-MLL peptide displacement from menin; inconclusive = falling polarisation curve, or a change in total fluorescence; inactive = total fluorescence flat and polarisation flat or rising; no compound was filed as active; the % refers to the polarisation; negative = inhibition;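 further: % of control where 0% means no effect; inhibitors lower the polarisation; unlabelled MLL peptide was the positive control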
# Sfp inh = inhibitors of Bacillus subtilis Sfp phosphopantetheinyl transferase. Potency, µM, without a hit: max response, negative = inhibition, most hits filed as inhibitors. AID 1490. hit rate 3.5% among 310,000. Biochemical Sfp PPTase activity, qHTS; active means well fitted inhibition curve with a large enough effect; inconclusive means small, poorly fitted or top-dose-only effect, or another doubt; inactive means no such curve, though single readings can be large or run the other way;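 further: the enzyme is Sfp with the accession as filed and its product quenches rhodamine fluorescence; potency means the concentration at half of the fitted maximal effect; 0% = enzyme reaction without inhibitor and -100% = no enzyme wells; top concentration of the series not given in the record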
#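 Buffer: 50 mM Hepes-Na pH 7.6, 10 mM MgCl2, 0.01% Nonidet P-40, 0.01% BSA. Enzyme 15 nM, pre-exposed to compound 15 min; substrates then added and fluorescence change tracked over 30 min.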
# TRPML1 inh = human mucolipin-1 channel inhibition | activity change, negative = inhibition, % (test concentration not listed) | TRPML1-inducible cells, Ca2+ dye fluorescence, FDSS; active compounds read low; inhibition of EC80 agonist-evoked calcium signal | hit rate 0.02% among 390,000 | Q9GZU1; in the data active means activity change below about -50%; inconclusive means about -30% to -50%; inactive means above about -30%;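 further: stimulus is agonist 54-4 at its EC80 concentration; on the % scale 0 is the no-effect control and ±100 the full control effect; compound concentration not given in the record; the text of the record puts the active cut at -80%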
# Target sequence (Q9GZU1 whole entry, looked up): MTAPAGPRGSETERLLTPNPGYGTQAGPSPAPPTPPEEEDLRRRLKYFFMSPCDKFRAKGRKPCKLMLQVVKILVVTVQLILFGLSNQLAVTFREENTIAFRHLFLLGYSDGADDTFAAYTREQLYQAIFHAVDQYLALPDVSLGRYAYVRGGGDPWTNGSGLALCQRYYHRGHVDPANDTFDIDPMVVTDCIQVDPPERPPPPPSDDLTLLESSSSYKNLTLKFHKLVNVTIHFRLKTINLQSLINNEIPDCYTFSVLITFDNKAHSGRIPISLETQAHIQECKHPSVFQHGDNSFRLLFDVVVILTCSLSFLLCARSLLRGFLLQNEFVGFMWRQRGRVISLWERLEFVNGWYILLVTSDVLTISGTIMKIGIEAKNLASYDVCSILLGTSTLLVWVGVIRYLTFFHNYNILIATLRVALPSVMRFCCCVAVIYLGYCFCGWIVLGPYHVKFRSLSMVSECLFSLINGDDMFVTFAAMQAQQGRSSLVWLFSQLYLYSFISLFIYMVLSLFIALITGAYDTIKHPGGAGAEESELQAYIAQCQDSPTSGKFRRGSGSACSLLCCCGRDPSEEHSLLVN
#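 Calcium fluorescence in TRPML1-DL cells induced overnight with Tet: a 110 s read after compound pin addition, then a 110 s antagonist read after challenge with 54-4 at 4 uM final (EC80).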
# ClpP mod = qHTS Assay for Activators of ClpP; ATP-dependent Clp protease proteolytic subunit (Bacillus subtilis (strain 168)), P80244; purified B. subtilis ClpP, FRET peptide cleavage, 20 min; Potency, µM (doses to about 57.5 µM), inactives show top-dose activity change, negative = active; hit rate 1.9% among 340,000; AID 651965, 2013; active = well fitted falling curve with a large enough effect; inconclusive = small, poorly fitted or top-dose-only effect; inactive = no such curve, though single readings can be large or run the other way; further: potency means the concentration at half of the fitted maximal effect; the source files actives as falling curves though it sought activators and does not explain the sign; nearly all actives have a fitted effect of over 65% in size; many hits overshoot -100%
# Target sequence (P80244 whole entry, looked up): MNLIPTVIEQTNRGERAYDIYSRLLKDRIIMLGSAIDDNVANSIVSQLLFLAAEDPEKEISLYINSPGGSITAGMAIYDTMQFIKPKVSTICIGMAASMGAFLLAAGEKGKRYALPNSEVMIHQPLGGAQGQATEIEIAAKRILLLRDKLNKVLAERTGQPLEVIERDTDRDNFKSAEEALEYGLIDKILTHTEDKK
#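 Buffer: 100 mM Tris/HCl pH8, 100 mM KCl, 0.05% low protease BSA, 2.5% glycerol, 0.01% Tween-20. ClpP 10 microg/mL final; 20 min RT; delta FRET normalized to ADEP and DMSO controls.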
# TRPML1 agonist = activates the human TRPML1 channel | TRPML1-expressing cells, Ca2+ dye fluorescence, FDSS; host cell line not named in the record; reference of the full effect not given here | activation, % (no concentration beside the values) | Q9GZU1 | AID 624414 | hit rate 0.12% among 410,000; in the data active = activation above about 50%; inconclusive = about 30% to 50%; inactive = below about 30%; further: 0% is about no effect; the text of the record puts the active cut at 80%
#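 In this qHTS format, compounds were pin-transferred onto Ca8-dye-loaded TRPML1-DL cells induced with Tet overnight, and intracellular Ca2+ fluorescence was recorded kinetically for 110 s after a 10 s baseline. A subsequent 4uM final 54-4 (EC80) addition followed by a second 110 s read served as the antagonist phase.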
# TRPV1 PAM = human TRPV1 potentiation; Q8NER1; TRPV1-expressing cells, Fluo-8 calcium influx, capsaicin EC20 potentiation; host cell line not named in the record; control for the full effect not named in the record; potentiation, % at 8.33 µM; hit rate 0.02% among 320,000; AID 540277; active means potentiation above 80%; inconclusive means 30% to 80%; inactive means below 30%; further: 0% is about no effect
#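 Cells expressing TRPV1 were dye-loaded with Fluo-8 and read kinetically: 10 s baseline, 3 min after compound (agonist portion), then 2 min after EC20 capsaicin (allosteric enhancer portion). Calcium-bound dye fluorescence at 480/520 nm.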
# * marks the source's active call; other numbers are inactive results; ? = inconclusive; / = not tested or not shown; & = joins results of further samples; [ ] = remark or other dose. The order is random; about 4.4% have a hit in one of these screens.
SMILES,PINK1 modulator,Menin MLL FP FL,Sfp inh,TRPML1 inh,ClpP mod,TRPML1 agonist,TRPV1 PAM
CCCCNC(=O)C(C)N(CCN(C)C)C(=O)CCCN1C(=O)NC(c2ccc([N+](=O)[O-])cc2)C(C(=O)OCc2ccccc2)=C1C (centres undefined),-0.1%,/,/,-1,2.0%,-0.4,/
Cc1nn(CCC(=O)Nc2cccc(C#N)c2)c(C)c1S(=O)(=O)N1CCC(C)CC1,4.5%,/,/,-27,1.3%,1.7,/
CC(=O)c1cc2c(cc1N/C(=N/S(=O)(=O)c1ccc(C)cc1)c1ccc(Cl)cc1)OCO2,-0.3%&2.5%,4.4,35%[activator],8&13,?,-0.1&0.5,3
O=C(CSc1nc2c(sc3ccccc32)c(=O)n1CCc1ccccc1)NCc1ccco1,-1.0%,3.3,-27%,5,-24%,-1.3,3
CN(C)S(=O)(=O)c1cccc(NC(=O)COC(=O)[C@H](Cc2ccccc2)NC(=O)c2ccco2)c1,-0.8%,/,/,-6,28µM*,1.1,/
Cc1ccc2nc(NC(=O)C3CCN(C(=O)c4ccc(F)cc4)CC3)sc2c1,3.1%,/,8%,9,1.6%,-0.4,-16
Cc1cccc(C(=O)CC(=O)c2cc(Cl)ccc2O)c1,2.8%,7.2,18%,51,0.5%,1.2,7
COc1ccc(CCNC(=O)C(=O)NCC2OCCN2C(=O)c2ccc(Cl)cc2)cc1 (centres undefined),2.9%,3.0,19%,-6,1.5%,0.1,0
Cc1c(Cl)cccc1NC(=O)[C@@]1(CC(=O)O)CC(/C=C/c2ccccc2)=NO1,1.7%,-1.8,13%,-12,2.0%,-0.1,-1
CNC(=S)N1CCN(c2nc3ccccc3s2)CC1,3.2%,-4.0,5%,4,/,-0.4,7
CCOc1ccc(Br)cc1CN(CC)CC,-0.2%,-0.4,17%,-1,/,1.6,4
Cc1ccc(CS(=O)(=O)Cc2ccc(C(=O)NC3CC3)o2)cc1,1.2%,/,5%,-1,-0.9%,0.4,5
Cn1cc(C(=O)NCc2ccccc2)c(=O)c2cc(S(=O)(=O)N3CCCCCC3)ccc21,1.0%,/,/,-1,1.4%,2.8,/
CC(C)(C)C(=O)N1CCN(c2ccc([N+](=O)[O-])c(NCc3cccnc3)c2)CC1,2.0%,-3.6,1%,-3,/,1.2,15
O=C(O)c1ccccc1-c1nc(-c2ccccc2)c(-c2ccccc2)[nH]1,-1.0%,1.7,2%,-11,/,0.6,11
COC(=O)CNC(=O)C1Nc2ccccc2C2C=CCC12 (centres undefined),0.8%,/,/,7,-16%,-0.1,/
COCc1nnc(NC(=O)c2ccc(NC(=O)C(C)C)cc2)s1,-1.6%,4.1,26%,-15,0.2%,0.0,-2
Cc1cccc(NC(=O)COC(=O)Cc2cccs2)c1C,-1.5%,/,/,1,25µM*,-0.4,-9
Cc1ccc2c(CSc3nc4ccccc4c(=O)n3CCCO)cc(=O)oc2c1,1.1%,/,/,-4,-1.4%,-0.7,/
CCCc1cc(=O)oc2c(CN3CCCC3)c(O)c(Cl)cc12,9.8%[38.3 µM],-15,0%,-2,0.4%,0.0,-1
Brc1ccc(-c2ccc(/C=N/Nc3nncc(-c4ccccc4)n3)o2)cc1,8.4%,1.5,5%,-14,1.8%,-0.6,6
COc1cc(C(C)=O)ccc1OCC(=O)NCC1(N2CCCCC2)CCCCC1,-0.2%,-0.7,20%,-14,-5.5%,0.4,-20
CC1CCCN(C(=O)C2CCC(CNc3c(N4CCCCC4)c(=O)c3=O)CC2)C1 (centres undefined),0.8%,-5.7,13%,/,-1.6%,/,7
Nc1nc(CSc2nnnn2-c2ccc(F)c(Cl)c2)nc(N2CCOCC2)n1,3.8%,/,/,-3,0.3%,0.4,/
COCCN1C[C@@H](CO)O[C@@H](n2cnc3c(NCCN(C)C)ncnc32)C1,0.3%,/,/,/,0.4%,2.0,/

# Next structures follow:
SMILES,PINK1 modulator,Menin MLL FP FL,Sfp inh,TRPML1 inh,ClpP mod,TRPML1 agonist,TRPV1 PAM
COC(=O)C(COC(=O)c1c(F)cccc1F)NC(=O)c1c(F)cccc1F (centres undefined),0.4%,-2.2,2%,14,-1.1%,-0.1,-19
CCOC(=O)Cc1c(C)nc2c(-c3ccccc3)c[nH]n2c1=O,-2.7%,3.5,-1%,36,16µM*,-0.8,2
CC(=O)Nc1ccc(S(=O)(=O)Oc2ccccc2N2CCCCC2)cc1,2.7%,?,-4%,-5,/,0.3,-3
COc1nc(NC(=O)c2ccc(F)cc2)nc(OC)c1-c1ccccc1,1.0%,3.6,-4%,16,/,0.1,-8
CCOC(=O)CSc1nc(N2CCOCC2)c2c(c1C#N)CC(C(C)C)OC2 (centres undefined),4.8%,-0.1,-17%,-15,/,1.0,-14
COCCN(Cc1ccc(C)cc1)C(=O)[C@H]1O[C@@H](n2ccc(N)nc2=O)[C@H](O)[C@@H]1O,1.5%,/,/,/,0.5%,0.4,/
CC(=O)Nc1ccc(C(=O)Nc2cccc(S(=O)(=O)N(C)c3ccccc3)c2)cc1,1.6%,/,/,45,-3.3%,0.3,11
O=C(C[C@@H]1C/C=C\C[C@@H](Cc2ccc(F)cc2)C(=O)OC[C@H]2CCCN2C1=O)N[C@H](CO)Cc1ccccc1,-0.1%,/,/,-18,-2.3%,0.9,/
O=C(O)c1cc(N/N=C/c2cccnc2)ccc1Cl,-0.6%,-0.7,1%,-16,-0.9%,-0.6,5
C/C(=N\NC(=O)c1cc(Cl)ccc1O)c1ccc(Br)s1,0.2%,0.6,11%,-16,-3.0%,1.4,2
Cc1cc(=O)nc2c3ccccc3n(C(C)C(=O)Nc3c(F)c(F)c(F)c(F)c3F)n12 (centres undefined),2.6%,2.7,10%,22,-0.9%,0.4,4
CN(/N=C/c1ccc(O)cc1O)c1nc(-c2ccccc2)cc(-c2ccccc2)n1,-5.7%,2.7,32%[activator],6,-1.4%,1.5,0
O=C(Nc1cnn(Cc2ccc(Cl)c(Cl)c2)c1)c1nc2ncccn2n1,3.3%,-0.7,21%,-2,1.4%,0.3,-49
CCCCn1c(SCC(=O)N2CCCCC2)nc2cc(S(N)(=O)=O)ccc21,?,3.0,-14%,-17,0.2%,0.0,-12
CN(C)Cc1ccccc1-c1cc(NCc2ccccc2)ncn1,-0.2%,1.1,16%,/,/,/,/
CN(C)c1ccc(/C=C/C(=O)c2ccc(C(C)(C)C)cc2)cc1[N+](=O)[O-],0.9%,-9.9,5%,-2,1.7%,0.5,10
CCCCn1c(=O)n(Cc2cccc(F)c2)c(=O)c2c1ncn2Cc1ccco1,0.5%,-0.4,40µM*,-5,-5.6%,2.2,-32
CC1=C(C#N)C(NC(=O)c2cccc(Cl)c2)(C(F)(F)F)C(=O)N1 (centres undefined),0.5%&1.4%,3.3,-11%,22&-7,0.1%&1.8%,4.2&-0.5,-11
COc1cc2c(=O)n(CCC(=O)NCC3CCCO3)c(=O)n(CC(=O)Nc3ccc(F)cc3)c2cc1OC (centres undefined),5.7%&0.2%,-0.4,9%,24&11,4.2%,-0.7&0.0,4
COc1ccc(CC2(CO)CCN(Cc3cccn3-c3ccccn3)CC2)cc1,1.4%,-1.1,7%,-1,/,-0.5,16
C=C(C)COc1ccc(-c2[nH]ncc2Oc2ccccc2OC)c(O)c1,26%[38.3 µM],0.7,14%,29,0.3%,0.8,11
COc1ccc([N+](=O)[O-])c(C=CC(=O)c2ccccn2)c1,-0.1%,/,/,-5,2.0%,2.4,/
CCOC(=O)Cn1c(=O)n(C2CCCCC2)c2nc(-c3ccccc3Cl)nc(C(N)=O)c21,3.8%,/,/,1,?,4.0,/
CN(C(=O)CC1C(=O)NCCN1Cc1ccc(F)cc1Cl)C1CCCCC1 (centres undefined),-0.3%,/,5%,-1,-29%,-0.7,6
O=C(N=C1N=C2C=CC=CN2Cc2ccccc21)c1ccc(S(=O)(=O)N2CCCC2)cc1,-0.6%,4.0,1%,1,/,1.0,26

# Further entries follow.
SMILES,PINK1 modulator,Menin MLL FP FL,Sfp inh,TRPML1 inh,ClpP mod,TRPML1 agonist,TRPV1 PAM
Cc1cccnc1C(c1ccc(F)cc1)N(C)C(=O)C1CCN(CCOc2ccc(Cl)cc2Cl)CC1 (centres undefined),-0.8%,/,/,/,1.0%,0.1,/
CCOC(=O)c1cc(N)cc([N+](=O)[O-])c1,1.2%,1.2,1%,-7,0.0%,-0.1,-4
CC1CCCCN1C(=O)CN1CCC(c2nc3ccc(Cl)cc3[nH]2)CC1 (centres undefined),-0.2%,3.1,9%,0,-0.6%,0.9,3
COc1ccc(/C=C(/C#N)S(=O)(=O)c2ccc(C)cc2)cc1,3.2%[38.3 µM],-1.3,5%,34,-1.5%,0.3,-8
C=CCOc1c(CNc2ncn[nH]2)cccc1OCC,0.2%,1.3,18%,-10,-2.4%,-0.5,-6
Cc1cc(C)n(-c2nc3cc(Cl)c(Cl)cc3nc2Nc2c(C)cccc2C)n1,4.5%,/,/,22,-1.4%,1.4,/
COc1cc(CN(C)CCc2ccccc2)ccc1OCc1ccccc1,4.1%[38.3 µM],3.3,2%,15,-0.6%,0.8,-28
CCOC(=O)[C@]12CCC=C1N(Cc1cccc3ccccc13)C(=O)[C@H](CC(=O)NCc1cccc3ccccc13)C2,-0.3%,/,/,/,-10%,0.3,/
C[C@@H]1CN([C@@H](C)CO)C(=O)c2cccc(NC(=O)Nc3ccccc3)c2O[C@H]1CN(C)C(=O)Nc1cccc2ccccc12,1.9%,/,/,12,?,-0.2,/
Cc1nc2sc(C(c3ccc(Cl)cc3)N3CC(C)OC(C)C3)c(O)n2n1 (centres undefined),-1.1%,4.6,9%,1,-2.7%,1.3,9
O=C(/C=C/c1cccs1)Nc1nncs1,0.8%,3.2,-4%,/,0.4%,/,29
Cc1ccc(NS(=O)(=O)c2cccc(C(=O)N/N=C/c3c(C)nn(-c4ccccc4)c3N3CCCC3)c2)c(C)c1,1.2%,1.3,11%,-6,-9.5%,-0.6,20
CCOc1ccc(-c2cc(NC(=O)Nc3ccc(Cl)cc3)c(C(=O)OC)s2)cc1,0.7%,/,/,0,?,-0.4,/
Cc1ccc(S(=O)(=O)c2cc3cc(C(=O)O)ccc3oc2=O)cc1,4.4%,/,/,-7,-16%,-0.4,/
